MLL AF4-AF9 inh – MLL-AF4/AF9 protein interaction inhibition; P42568; AlphaScreen, biotin-AF4 peptide binding to FLAG-AF9; inhibition, % at 10 µM; 0.47% of 350,000 active; AID 651704;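 active = every replicate reaching a set inhibition limit, whatever the replicate mean, cut at about 25% in these data; inconclusive = mean inhibition reaches that limit but some replicates miss it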;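 note: 0% = plate neutral control median and 100% = total signal loss; the record names both 10 and 1 µM as test concentration; the first replicate is given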
Target sequence (P42568 whole entry, looked up): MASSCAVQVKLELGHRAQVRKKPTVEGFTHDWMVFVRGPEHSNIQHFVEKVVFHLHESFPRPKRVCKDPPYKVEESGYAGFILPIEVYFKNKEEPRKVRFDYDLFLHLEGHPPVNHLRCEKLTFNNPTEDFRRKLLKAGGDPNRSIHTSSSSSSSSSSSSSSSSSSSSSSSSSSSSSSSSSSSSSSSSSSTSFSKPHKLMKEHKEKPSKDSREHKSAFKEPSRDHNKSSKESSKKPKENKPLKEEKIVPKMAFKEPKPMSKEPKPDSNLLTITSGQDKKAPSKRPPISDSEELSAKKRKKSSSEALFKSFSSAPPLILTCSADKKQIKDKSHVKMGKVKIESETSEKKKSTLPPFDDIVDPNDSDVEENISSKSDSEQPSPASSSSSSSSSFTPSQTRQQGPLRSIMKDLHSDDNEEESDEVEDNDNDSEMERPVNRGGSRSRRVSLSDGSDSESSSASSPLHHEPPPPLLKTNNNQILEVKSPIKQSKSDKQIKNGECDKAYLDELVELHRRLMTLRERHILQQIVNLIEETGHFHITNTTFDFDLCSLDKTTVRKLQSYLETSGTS
* = called active by the depositor; ? = inconclusive; & = joins results of further samples. An excerpt; count on the stated rates, not on these rows.

SMILES	MLL AF4-AF9 inh
C[C@H]1CN([C@@H](C)CO)C(=O)c2cc(NC(=O)NC3CCCCC3)ccc2O[C@H]1CN(C)S(=O)(=O)c1cn(C)cn1	0.2
C[C@@H]1CN([C@@H](C)CO)C(=O)c2cc(NS(=O)(=O)c3cn(C)cn3)ccc2O[C@@H](C)CCCCO[C@H]1CN(C)C(=O)CCCN(C)C	-2.8
O=C(C1CCCC1)N1[C@@H](CO)[C@@H]2c3ccccc3N(S(=O)(=O)c3ccc(F)cc3)C[C@@H]21	0.8
CO[C@H]1CN(C)C(=O)c2cc(NC(=O)Nc3cccc(F)c3)ccc2OC[C@@H](C)N(C)C[C@@H]1C	3.1
C[C@@H]1CN([C@@H](C)CO)C(=O)c2cc(C#CC3(O)CCCC3)cnc2O[C@H]1CN(C)C(=O)Cc1ccccc1	-3.7
CCCNC(=O)Nc1ccc2c(c1)OC[C@@H](C)N(Cc1ccccn1)C[C@H](C)[C@H](OC)CN(C)C2=O	-0.5
CCCCCCCCN1C(=O)[C@@H](CC(=O)N2CCCCC2)C[C@@]2(C(=O)OC)C1=C[C@H](C(C)(C)C)O[C@@H]2C	-2.6
COc1ccc(S(=O)(=O)N[C@H]2C=C[C@@H](CC(=O)N3CCc4ccccc4C3)O[C@@H]2CO)cc1	-1.5
CC(C)[Si](C#CCCCC#N)(O[C@H](c1ccccc1)c1cn(Cc2cccc(Cl)c2)nn1)C(C)C	-4.9
COc1ccccc1N(C)S(=O)(=O)c1ccc(C(=O)Nc2cc(OC)c(OC)c(OC)c2)cc1	9.4
COc1ccc(CN2C(=O)C(CC(=O)NCCCN(C)C)CC(C(=O)N3CCCCCC3)=C2C)cc1 (stereo not given)	-2.5
CCNC(=O)C[C@H]1CC[C@@H]2[C@@H](COc3ccc(NC(=O)Cc4cccs4)cc3C(=O)N2C)O1	-1.1
CN(C)C(=O)C[C@H]1CC[C@H]2[C@@H](COC[C@H](O)CN2CC2CC2)O1	-3.3
CCCNC(=O)[C@H]1[C@H](CO)[C@H]2Cn3c(ccc(C4=CCCCC4)c3=O)[C@@H]1N2Cc1cocn1	-1.2
C[C@@H]1CN([C@H](C)CO)S(=O)(=O)c2ccc(-c3ccncc3)cc2O[C@@H]1CN(C)Cc1cccnc1	3.2
C[C@H]1CCCCO[C@H](CN(C)C(=O)CCCN(C)C)[C@@H](C)CN([C@@H](C)CO)C(=O)c2cc(NC(=O)Nc3ccccc3)ccc2O1	9.2
CC1(C(=O)NCCC#N)CCN1C(=O)c1ccccc1CCc1ccccc1 (stereo not given)	-0.5
COc1cc(-c2coc3c(C(=O)Nc4ccc(C(C)C)cc4)cccc23)ccc1O	2.8
C[C@@H]1CN([C@H](C)CO)C(=O)c2cc(NC(=O)Nc3cccc4ccccc34)ccc2O[C@@H](C)CCCCO[C@@H]1CN(C)Cc1ccccc1	0.6
COc1ccc(S(=O)(=O)N(C)C[C@H]2Oc3ccc(NC(=O)Nc4cccc5ccccc45)cc3CC(=O)N([C@H](C)CO)C[C@H]2C)cc1	5.1
C[C@H](CO)N1C[C@H](C)[C@H](CN(C)C(=O)NC2CCCCC2)Oc2ccc(NC(=O)C3CC3)cc2CC1=O	3.0
O=C(C1CCCC1)N1CC[C@H]2[C@H](CO)Nc3ccc(C4=CCCCC4)cc3[C@H]21	-3.3
CN1[C@@H]2Cn3c(ccc(-c4ccccc4)c3=O)[C@H]1[C@@H](C(=O)NCCCN1CCOCC1)[C@@H]2CO	0.1
C[C@H](CO)N1C[C@H](C)[C@@H](CN(C)C(=O)Nc2ccccc2)OCCCC[C@H](C)Oc2ccc(NC(=O)Nc3ccc(F)cc3)cc2C1=O	2.8
O=C1CN(Cc2ccccc2)C[C@@H]2[C@H](c3ccc(-c4ccccc4F)cc3)[C@@H](CO)N12	1.4
CS(=O)(=O)/C(C#N)=C/c1cccn1S(=O)(=O)c1cccc2ccccc12	4.4
O=C(NCc1ccccc1)[C@H]1[C@H](CO)[C@H]2Cn3c(cccc3=O)[C@@H]1N2	-1.0
C[C@H]1CN([C@@H](C)CO)C(=O)c2cccc(NC(=O)c3cnccn3)c2O[C@H]1CN(C)S(=O)(=O)c1cccs1	0.6
CC(=O)c1ccc(Nc2nc(C(N)Cc3ccc(N)cc3)cs2)cc1 (stereo not given)	?
CNC[C@@H]1Oc2ccc(NC(=O)Cc3ccccc3)cc2CC(=O)N([C@H](C)CO)C[C@H]1C	-2.1
O=C(Nc1cccc2ccccc12)c1ccco1	-2.2
C[C@@H]1CCCCO[C@H](CN(C)C(=O)Nc2ccc(F)cc2)[C@@H](C)CN([C@H](C)CO)C(=O)c2cc(NC(=O)Nc3ccc(F)cc3)ccc2O1	0.9
CNC(=O)C[C@H]1CC[C@H]2[C@@H](COc3ccc(NC(=O)Nc4ccccc4)cc3C(=O)N2C)O1	-12
CCCN(C)C[C@H]1Oc2cc(C#CCC3CCCC3)ccc2S(=O)(=O)N([C@@H](C)CO)C[C@H]1C	4.7
CC(=O)N(C)C[C@@H]1Oc2cc(C#CC(C)(C)O)ccc2S(=O)(=O)N([C@H](C)CO)C[C@H]1C	-1.9
C[C@@H]1CN([C@@H](C)CO)C(=O)c2cccc(NC(=O)NC3CCCCC3)c2O[C@@H]1CN(C)CC1CCCCC1	-3.2
Cc1cc(F)ccc1-c1cc(C(=O)NCc2cc(C(F)(F)F)cc(C(F)(F)F)c2)[nH]n1	0.6
CC(=O)N(C)C[C@H]1Oc2ncc(/C=C/c3ccccc3)cc2C(=O)N([C@H](C)CO)C[C@H]1C	-1.5
COCCNC(=O)C[C@@H]1C[C@H]2c3cc(NS(=O)(=O)c4ccccc4)ccc3O[C@H]2[C@@H](CO)O1	-1.2
CC(C)NC(=O)N(C)C[C@@H]1Oc2ncc(C#CC3(O)CCCC3)cc2C(=O)N([C@@H](C)CO)C[C@@H]1C	-0.9
C[C@@H]1CCCCO[C@@H](CN(C)C(=O)C2CCCCC2)[C@@H](C)CN([C@H](C)CO)C(=O)c2cc(NS(C)(=O)=O)ccc2O1	-1.6
COc1ccc(-c2ccc3c(c2)[C@H]2[C@H](CCN2Cc2ccncc2)[C@@H](CO)N3)cc1	6.0
CSc1ccc(Cn2c(C)c(C(=O)NCCC#N)sc2=O)cc1	-2.4
O=C(c1ccc(F)cc1)N1CC(=O)N2[C@H](CO)[C@H](c3ccc(-c4ccccc4)cc3)[C@H]2C1	-1.8
Cc1ccc(S(=O)(=O)N2[C@@H]3CNC[C@H]2C3c2ccc(-c3cccc(C#N)c3)cc2)cc1 (stereo not given in full)	-1.1
O=C(O)C[C@H]1C[C@@H]2c3cc(NC(=O)Cc4ccncc4)ccc3O[C@@H]2[C@@H](CO)O1	-1.3
Cc1ccc(Cc2c(-c3ccc(Cl)cc3)nc3c4ccccc4ccn23)cc1	1.6
COc1ccc(NC(=O)Nc2ccc3c(c2)C(=O)N([C@H](C)CO)C[C@@H](C)[C@@H](CN(C)C(=O)C2CCCCC2)OCCCC[C@H](C)O3)cc1	3.2&5.5
Cc1cc(Br)cn2c(Cc3ccccc3)c(-c3ccco3)nc12	2.8
C#CCNC(=O)C[C@@H]1C[C@@]2(C(=O)OC)CCCCC=C2N(Cc2ccco2)C1=O	-0.8
CCCN1C[C@H](C)[C@H](OC)CN(C)C(=O)c2cc(NC(=O)c3ccccc3F)ccc2OC[C@@H]1C	-1.0
COc1ccccc1C#Cc1cnc2c(c1)C(=O)N([C@H](C)CO)C[C@H](C)[C@H](CN(C)C(=O)c1ccc3c(c1)OCO3)O2	2.4
Cc1ccc(S(=O)(=O)Nc2ccc3c(c2)C(=O)N([C@H](C)CO)C[C@H](C)[C@@H](CN(C)C(=O)NC2CCCCC2)O3)cc1	-2.1
Cc1noc(C)c1NC(=O)Nc1ccc2c(c1)C(=O)N([C@@H](C)CO)C[C@H](C)[C@@H](CN(C)S(=O)(=O)c1cccs1)OCCCC[C@@H](C)O2	0.7
C[C@@H]1CCCCO[C@@H](CN(C)S(C)(=O)=O)[C@H](C)CN([C@@H](C)CO)C(=O)c2cc(NS(=O)(=O)c3cccs3)ccc2O1	-1.1
C[C@H](CO)N1C[C@H](C)[C@H](CN(C)CC2CCCCC2)Oc2ccc(NC(=O)C3CC3)cc2CC1=O	-0.9
C[C@@H]1CN([C@H](C)CO)C(=O)c2cc(-c3cccc(F)c3)cnc2O[C@@H]1CN(C)C	-1.6
C[C@H]1CN([C@@H](C)CO)S(=O)(=O)c2ccc(C3=CCCC3)cc2O[C@H]1CN(C)C(=O)CC1CC1	-1.5
COc1ccc(C=C(C(C)=O)C(=O)c2ccccc2)cc1	-2.9
COc1ccc(NC(=O)N(C)C[C@H]2OCCCC[C@H](C)Oc3ccc(NC(=O)Cc4ccccc4)cc3C(=O)N([C@H](C)CO)C[C@H]2C)cc1	1.4

Entries shown so far with a Cl atom, in the order listed:
SMILES	MLL AF4-AF9 inh
CC(C)[Si](C#CCCCC#N)(O[C@H](c1ccccc1)c1cn(Cc2cccc(Cl)c2)nn1)C(C)C	-4.9
Cc1ccc(Cc2c(-c3ccc(Cl)cc3)nc3c4ccccc4ccn23)cc1	1.6

Back to the main list, starting six compounds before the break.
SMILES	MLL AF4-AF9 inh
C[C@@H]1CCCCO[C@@H](CN(C)S(C)(=O)=O)[C@H](C)CN([C@@H](C)CO)C(=O)c2cc(NS(=O)(=O)c3cccs3)ccc2O1	-1.1
C[C@H](CO)N1C[C@H](C)[C@H](CN(C)CC2CCCCC2)Oc2ccc(NC(=O)C3CC3)cc2CC1=O	-0.9
C[C@@H]1CN([C@H](C)CO)C(=O)c2cc(-c3cccc(F)c3)cnc2O[C@@H]1CN(C)C	-1.6
C[C@H]1CN([C@@H](C)CO)S(=O)(=O)c2ccc(C3=CCCC3)cc2O[C@H]1CN(C)C(=O)CC1CC1	-1.5
COc1ccc(C=C(C(C)=O)C(=O)c2ccccc2)cc1	-2.9
COc1ccc(NC(=O)N(C)C[C@H]2OCCCC[C@H](C)Oc3ccc(NC(=O)Cc4ccccc4)cc3C(=O)N([C@H](C)CO)C[C@H]2C)cc1	1.4
CC(C)NC(=O)N(C)C[C@H]1Oc2cc(-c3ccccc3)ccc2S(=O)(=O)N([C@@H](C)CO)C[C@@H]1C	1.8
CN(C)CCCNC(=O)C[C@@H]1C=C[C@H](NS(=O)(=O)c2ccc(F)cc2)[C@H](CO)O1	0.3
CC(C)(C)c1ccc(-n2ncc3c2CCCC3NC(=O)CCC2=NNC(=O)CC2)cc1 (stereo not given)	1.2
CCOC(=O)C1=CCN(S(=O)(=O)c2cccc(Cl)c2)C1c1cccc(Cl)c1 (stereo not given)	0.6
CC(C)C#Cc1cnc2c(c1)C(=O)N([C@H](C)CO)C[C@H](C)[C@@H](CN(C)Cc1ccccn1)O2	0.0
COc1ccc(S(=O)(=O)NC(=O)C2(C)CCN2C(=O)CCC2CCCC2)cc1OC (stereo not given)	-2.4
CCCCn1nnnc1C(c1ccccc1)N1CCN(c2ccccn2)CC1 (stereo not given)	-1.2
O=S(=O)(c1ccccc1)N1[C@H](CO)[C@@H]2c3ccccc3NC[C@@H]21	-1.3
C[C@@H]1CN([C@H](C)CO)S(=O)(=O)c2ccc(-c3cccnc3)cc2O[C@@H]1CN(C)C(=O)C1CCC1	1.3
Cc1noc(C)c1NC(=O)N(C)C[C@H]1Oc2ccc(NC(=O)CCC(F)(F)F)cc2CC(=O)N([C@@H](C)CO)C[C@@H]1C	-1.4
CS(=O)(=O)Nc1ccc2c(c1)[C@H]1C[C@H](CC(=O)NCCN3CCCCC3)O[C@H](CO)[C@H]1O2	-0.1
O=C(C[C@@H]1C=C[C@@H](NC(=O)C2CCC2)[C@@H](CO)O1)NCC1CC1	-2.0
C[C@@H]1CCCCO[C@@H](CN(C)C(=O)Nc2ccccc2)[C@H](C)CN([C@@H](C)CO)C(=O)c2cc(NS(=O)(=O)c3cccs3)ccc2O1	2.0
CO[C@@H]1CN(C)C(=O)c2ccc(NS(=O)(=O)C3CCCCC3)cc2OC[C@@H](C)NC[C@@H]1C	-0.8
O=C(Nc1cccc(Cl)c1)c1csc([C@@H]2C[C@H](O)[C@@H](CO)O2)n1	1.0
C[C@@H]1CN([C@@H](C)CO)C(=O)Cc2cc(NS(=O)(=O)c3ccccc3)ccc2O[C@H]1CN(C)S(=O)(=O)c1ccccc1	-2.0
C[C@@H]1CN([C@H](C)CO)C(=O)c2cc(NS(=O)(=O)c3ccc(Cl)cc3)ccc2O[C@H]1CN(C)Cc1ccc(Oc2ccccc2)cc1	-2.1
CCCNC(=O)N(Cc1cccnc1)C[C@H]1N[C@H](CO)[C@@H]1c1ccccc1	-1.5
Cc1noc(C)c1NC(=O)Nc1ccc2c(c1)CC(=O)N([C@@H](C)CO)C[C@H](C)[C@H](CN(C)S(=O)(=O)c1ccccc1)O2	-20
CCCNC(=O)C1(C)CCCN(C(=O)c2ccc(C)c(F)c2)C1 (stereo not given)	-1.0
CCC(=O)N1CC(=O)N2[C@@H](CO)[C@@H](c3ccc(-c4ccc(C#N)cc4)cc3)[C@@H]2C1	-3.8
Cc1ccc(-c2cnc3c(c2)C(=O)N([C@H](C)CO)C[C@@H](C)[C@@H](CN(C)C(=O)c2cccnc2)O3)cc1	-7.3
CCc1nc2ccc(C(=O)Nc3cc(-c4ccccc4)ccc3OC)cn2c1N(C)C(=O)c1cccc(OC)c1	1.4
COc1ccccc1C#Cc1ccc([C@H]2[C@H](CO)N3CCCCN(S(C)(=O)=O)C[C@@H]23)cc1	2.2
COc1ccc(CN(C)C[C@H]2Oc3ccc(NC(=O)Cc4ccccc4)cc3CC(=O)N([C@H](C)CO)C[C@@H]2C)cc1	-3.8
CC1(Oc2cccc(Cl)c2)CCN(Cc2ccc(OC(F)(F)F)cc2)C1 (stereo not given)	0.2
C[C@@H]1CN([C@H](C)CO)C(=O)Cc2cc(NC(=O)Nc3ccccc3)ccc2O[C@@H]1CN(C)C(=O)Nc1cccc2ccccc12	1.8

Compound activity as filed in PubChem.
